PrP UTR inh: inhibition of PrP 5' UTR reporter expression. inhibition, % (test concentration not listed). cell-based PrP 5' UTR mRNA reporter, plate reader. actives 0.35% (n = 340,000);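 active = every replicate at 50% or more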;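 note: 0 = median of the neutral control wells; tested in H4 reporter cells; numbers are from one replicate; inactives centre near -14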
Bead autofluor: flagged as autofluorescent in microsphere protease counterscreen; fluorescence intensity (no concentration beside the values); actives 3.1% (n = 360,000); compound autofluorescence counterscreen, microsphere flow cytometry; active compounds read high; AID 624483;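 active = at least 3 SD above the mean of all compounds, about 16000 in these data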;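 note: 100 nL of 1 mM stock went into each well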
Mtb hypoxia rep: PubChem AID 1159583; actives 0.1% (n = 300,000); M. tuberculosis hypoxia-regulated fluorescent reporter, fluorescence; fluorescence inhibition, % (no concentration beside the values);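 active = 35 to 45% if threefold the growth effect, above 45% if 1.5-fold the growth effect; inactive = the rest, general growth blockers included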;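 note: wells of about 50 µL received 100 nL stock; 0% = vehicle wells and 100% = reference inhibitor wells; whole bacteria with a GFP reporter of the hypoxia response; strong numbers were not always called active; many hits fall short of the cut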
Sa RN4220 lethal: growth inhibition of S. aureus RN4220, primary screen, OD600 | inhibition, % (no concentration beside the values) | 16 h | actives 0.33% (n = 330,000) | AID 1259311, 2017;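 active = z-score of -3 or lower and OD600 up to 0.18 on both plates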;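 note: plate controls were untreated cells for no effect and reference antibiotic for full effect; stock transfer was 100 nL into about 80 µL; one replicate is shown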
ugtP null kill: growth inhibition of ugtP-null S. aureus, primary screen, RN4220 ugtP deletion, OD600. 16 h; some inactives read as strong as hits. actives 0.54% (n = 330,000). growth inhibition, % (no concentration beside the values). AID 1259309, 2017;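 active = z-score under -3 and OD600 up to 0.15 on both plates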;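 note: plate controls were untreated wells for no effect and antibiotic for full effect; wells of about 80 µL received 100 nL stock; the first replicate is given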
BJeLR lethal: MLPCN primary cell-based screen for lethality selective to Ras in HRASV12 cells; BJeLR (HRASV12) viability, CellTiter-Glo ATP luminescence, 48 h; reference of the scale not given here; inhibition, % (concentration not given with the values); actives 0.17% (n = 300,000);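 active = replicate mean above 50%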;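 note: 50 nL library stock added to about 25 µL; numbers are from one replicate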
Mtb hypoxia rep growth: further read-out of Mtb hypoxia rep, marked with its call; growth inhibition, %; measured here: M. tuberculosis growth (absorbance);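 0% = vehicle and 100% = reference antibiotic; read after six days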
Starred values were filed as active, the others as inactive; . = no result given.

SMILES	PrP UTR inh	Bead autofluor	Mtb hypoxia rep	Mtb hypoxia rep growth	Sa RN4220 lethal	ugtP null kill	BJeLR lethal
Cc1ccc(-c2ccccc2NC(=O)CS(=O)CC(=O)Nc2ccc(C)c(Cl)c2)o1 (stereo unspecified)	-17.3	5567	.	.	.	.	-5.3
CS(=O)(=O)N(CC(=O)N1CCCCC1)c1ccc(Cl)c(C(F)(F)F)c1	-35.3	12626	4.7	1.8	2.1	-6.0	8.0
COc1ccc(C2C=CCN(S(=O)(=O)c3ccc4ccccc4c3)C(C)C(=O)N2Cc2ccc(F)cc2)cc1 (stereo unspecified)	.	.	4.8	9.0	10.0	8.5	.
O=C(c1ccc(-c2ccc(Cl)cc2)o1)N1CCN(S(=O)(=O)c2cccs2)CC1	-11.7	3683	-1.2	6.1	-1.3	5.7	.
Fc1ccc(/C=N/n2c(-c3cccs3)n[nH]c2=S)cc1	-20.3	6016	.	.	.	.	9.5
CCOC(=O)C1NN=C(C(=O)c2ccccc2)C1c1ccc(Cl)cc1 (stereo unspecified)	-5.8	2223	.	.	.	.	-0.1
Clc1nssc1=Nc1ccccc1	-37.1	3277	3.6	6.3	2.9	1.6	.
O=C(CNC(=O)C(c1ccccc1)c1ccccc1)N/N=C\c1cccc(O)c1	-16.9	4414	.	.	.	.	-27.9
O=C1c2ccccc2S(=O)(=O)c2cc(C(=O)N3CCN(c4c(Cl)cncc4Cl)CC3)ccc21	-5.5	2950	-3.5	5.9	15.0	5.2	-11.1
COc1cccc2cc(C(=O)NCc3ccc(C)cc3)c(=N)oc12	-10.3	4915	6.2	2.9	-2.0	-8.1	8.3
O=C(CCN1C(=O)CSc2ccccc21)Nc1ccc(OC(F)(F)F)cc1	-16.0	4151	-7.9	2.0	3.4	-0.6	.
O=S(=O)(CCN1CCN(c2ccccn2)CC1)c1ccc(Cl)cc1Cl	-24.4	4498	17.2	6.5	4.6	16.7	-9.0

Copied from the entries so far for reference:
SMILES	PrP UTR inh	Bead autofluor	Mtb hypoxia rep	Mtb hypoxia rep growth	Sa RN4220 lethal	ugtP null kill	BJeLR lethal
Clc1nssc1=Nc1ccccc1	-37.1	3277	3.6	6.3	2.9	1.6	.
O=C(CNC(=O)C(c1ccccc1)c1ccccc1)N/N=C\c1cccc(O)c1	-16.9	4414	.	.	.	.	-27.9
O=C1c2ccccc2S(=O)(=O)c2cc(C(=O)N3CCN(c4c(Cl)cncc4Cl)CC3)ccc21	-5.5	2950	-3.5	5.9	15.0	5.2	-11.1
COc1cccc2cc(C(=O)NCc3ccc(C)cc3)c(=N)oc12	-10.3	4915	6.2	2.9	-2.0	-8.1	8.3
O=C(CCN1C(=O)CSc2ccccc21)Nc1ccc(OC(F)(F)F)cc1	-16.0	4151	-7.9	2.0	3.4	-0.6	.
O=S(=O)(CCN1CCN(c2ccccn2)CC1)c1ccc(Cl)cc1Cl	-24.4	4498	17.2	6.5	4.6	16.7	-9.0

Following part
SMILES	PrP UTR inh	Bead autofluor	Mtb hypoxia rep	Mtb hypoxia rep growth	Sa RN4220 lethal	ugtP null kill	BJeLR lethal
COc1ccc(NC(=O)c2ccc3c(c2)C(=O)N(CC2CCCO2)C3=O)c(OC)c1 (stereo unspecified)	-3.6	2982	-0.8	-4.3	4.6	13.9	-7.1
CCc1ccc(NC(=O)NC(C)c2ccc3c(c2)OCO3)cc1 (stereo unspecified)	-16.1	6445	1.2	13.3	-2.9	-2.7	13.7
COc1ccc(OC)c(C2NC(=O)N(C)C(C)=C2C(=O)OCc2ccccc2)c1 (stereo unspecified)	13.2	.	18.8	3.7	8.4	6.1	-5.7
Cc1ccc(C)c(N2CCN(S(=O)(=O)c3c(C(=O)N4CCCCC4)c(C)n(C)c3C)CC2)c1	-17.5	6086	15.2	2.0	1.1	9.4	7.0
O=C(O)c1cc(N/N=C/c2ccc(OCc3ccccc3)cc2)ccc1Cl	-55.3	2873	.	.	.	.	-30.7
O=C(CCCO)CCCCCCCCCC1NC(CO)C(O)C1O (stereo unspecified)	.	.	0.1	-4.8	6.6	-2.2	.
CCN1CCCC1CNC(=O)c1cc([N+](=O)[O-])c(N(C)C)cc1OC (stereo unspecified)	-18.1	3334	18.4	3.2	4.3	11.9	-1.3
CCOP(=O)(OCC)C(NC(=O)c1cccs1)C(F)(F)F (stereo unspecified)	-13.3	2019	5.6	4.6	5.0	6.1	1.2
O=C1Nc2ccc(F)cc2C12Nc1ccccc1-c1nnc(SCc3ccccc3)nc1O2 (stereo unspecified)	-20.4	12799	1.7	-0.6	0.3	0.6	3.3
Cc1oc2c(C)c3oc(=O)c4c(c3cc2c1C)CCC4	-31.2	4174	-80.2	-11.4	6.0	8.3	-5.6
Cc1cc(C)nc(SCC(=O)NN=C/C(Br)=C/c2ccccc2)n1	.	.	3.7	-1.7	2.0	-8.5	.
Cc1cccc(NC(=O)C2C3C=CC4(O3)C2C(=O)N(CCCN2CCCC2)C4C(=O)NC2CCCC(C)C2C)c1 (stereo unspecified)	-22.5	3466	-1.0	3.1	-0.4	14.7	8.7

Profiles, looked up by structure. Screens in order: PrP UTR inh | Bead autofluor | Mtb hypoxia rep | Mtb hypoxia rep growth | Sa RN4220 lethal | ugtP null kill | BJeLR lethal
O=C(O)c1cc(N/N=C/c2ccc(OCc3ccccc3)cc2)ccc1Cl is entered as -55.3 | 2873 | . | . | . | . | -30.7
Cc1cccc(NC(=O)C2C3C=CC4(O3)C2C(=O)N(CCCN2CCCC2)C4C(=O)NC2CCCC(C)C2C)c1 (stereo unspecified) is entered as -22.5 | 3466 | -1.0 | 3.1 | -0.4 | 14.7 | 8.7

Continued:
SMILES	PrP UTR inh	Bead autofluor	Mtb hypoxia rep	Mtb hypoxia rep growth	Sa RN4220 lethal	ugtP null kill	BJeLR lethal
CCCCCCSc1nsc(N)n1	-36.8	6409	10.8	2.3	5.4	49.5	-4.2
Cc1ccccc1C(=O)NNC(=O)C1CCN(c2ncccn2)CC1	-10.2	5552	2.9	3.6	1.3	9.8	-5.5
COCc1cc(C)nc(OCC(=O)N/N=C/c2ccc(O)cc2O)c1C#N	-7.0	2314	.	.	.	.	4.6
CN(C)c1cccc(C(=O)NNC(=S)NC2CC3CCC2C3)c1 (stereo unspecified)	-18.8	4601	9.7	15.0	15.8	3.9	5.0
CCC1SC(=NN=Cc2ccco2)N(Cc2ccccc2C)C1=O (stereo unspecified)	.	.	4.4	0.7	0.6	28.3	.
Cc1nc(NS(=O)(=O)c2ccccc2C)c2c3c(sc2n1)CCC3	.	.	15.6	15.0	0.5	-8.3	-9.7
COC(=O)COc1ccc(S(=O)(=O)N2CCN(c3ccccc3)CC2)cc1	-19.0	4569	4.1	15.6	2.8	-3.5	-5.9
CCCN1/C(=C(/C#N)C2=NS(=O)(=O)c3ccccc32)N(C)c2ccccc21	-9.1	8331	-8.2	4.1	-0.3	0.2	3.2
Cn1cc(CN2CCN(c3ncccn3)CC2)c(-c2cccc(Cl)c2)n1	-36.1	3620	13.0	3.4	5.4	1.3	-10.5
Cc1cccc(N2CCN(C(=O)/C=C/c3cccs3)CC2)c1C	-28.6	2442	3.9	9.1	-1.7	9.1	-9.0
COc1ccc(OC)c(CCNC(=O)CCCc2nnc3n(C)c(=O)c4sccc4n23)c1	-13.2	5225	-2.4	-3.8	0.8	2.7	-7.8
O=S(=O)(c1ccc(F)cc1)N1CC=C(c2ccccc2)CC1	.	3748	4.2	9.2	5.2	8.1	7.8
Cc1ccc(S(=O)(=O)CCC(=O)Nc2cccc(C)c2)cc1	-5.5	10057	.	.	.	.	-15.8
COc1ccc(NC(=O)CSc2nc(SC)ns2)cc1	-28.6	3730	18.6	10.1	-1.2	6.7	5.0
CCC(=O)N1CCN=C1SCc1cccc(C(F)(F)F)c1	-6.9	4303	10.5	-5.1	3.5	9.4	-4.1
Cc1cc(=O)oc(C)c1C(=O)n1nc(C)c2c1CC1C2C1(C)C (stereo unspecified)	.	.	3.7	1.1	10.2	6.7	.
c1ccc2[nH]c(NN=C3CCCCCC3)nc2c1	-131.1	4255	-9.8	2.9	6.3	-4.2	17.9
CCC(C)NC(=O)CSc1nnc(-c2c[nH]c3ccccc23)o1 (stereo unspecified)	-44.6	4074	2.9	11.7	4.8	0.7	-9.7
COc1ccc(NC(=O)c2ccccc2C)c(OC)c1	-15.8	16437*	7.1	3.7	9.6	6.1	-5.1
CC(C)OC(=O)CSc1ncnc2c1cnn2Cc1ccccc1	7.0	4519	.	.	-1.5	26.5	-2.7
COc1cccc(C2CC(=O)Nc3n[nH]c(-c4ccccc4)c32)c1OC (stereo unspecified)	-8.4	4011	13.4	5.4	3.2	-1.5	6.6
Cc1cccc(-c2noc(CCCC(=O)N3CCOCC3)n2)c1	-15.2	21401*	5.1	2.6	5.0	3.7	.
Cc1ccccc1CN1CCCNC1=O	-14.0	10623	-5.1	13.5	0.4	-1.3	-2.4
CC12CCC(C(=O)NNc3ccccc3)(OC1=O)C2(C)C (stereo unspecified)	-45.2	5061	0.1	5.0	2.4	3.2	20.5
Cc1nc2ccccn2c1-c1ccnc(SCc2ccc(Cl)cc2)n1	-78.0	.	4.3	12.9	1.8	-9.4	6.6
Cc1ccc(NC(=O)CNc2ccc(OC(C)C)cc2)cc1	-41.8	2663	.	.	13.4	-3.1	-2.3
COC(=O)c1ccc(NC(=S)NC2c3ccccc3CC2O)cc1 (stereo unspecified)	-34.6	4161	-9.4	2.6	0.3	-2.2	4.7
CCN(CC)CCN(Cc1cc2cc3c(cc2[nH]c1=O)OCCO3)C(=S)NCC1CCCO1 (stereo unspecified)	1.1	5102	-0.1	-0.5	-0.3	5.1	-9.5
Cc1cc(NC(=O)CCCN2C(=O)c3cccnc3C2=O)ccc1Br	-9.5	4507	2.3	-5.4	-1.8	1.5	-11.3
CCOC(=O)CN(C(=O)COc1ccc2c(C)cc(=O)oc2c1)c1ccc(OCC)cc1	-10.6	2016	-4.9	-4.5	2.0	4.1	-5.1
CCCSC1=C(C#N)C(c2ccccc2C)CC(=O)N1 (stereo unspecified)	-15.4	2517	.	.	-1.2	1.4	-1.4
NC(=O)NC(=O)C[n+]1cccc(C=NO)c1	.	.	-6.6	-5.5	1.3	2.4	.
COCCNC(=O)c1c(N)n(Cc2ccco2)c2nc3ccccc3nc12	-23.1	4121	1.4	8.4	-1.8	-7.5	0.0
OCCC1CN(C2CCSCC2)CCN1C1CCCC1 (stereo unspecified)	-9.6	4264	0.0	12.9	3.5	-4.7	7.4
CC(C)c1ccc(NC(=O)COC(=O)CSc2nnc(N)s2)cc1	-17.2	2326	5.5	-1.7	4.4	-1.5	13.7
COc1cc(C)c(NC(=O)c2cc(C3CC3)nc3c2cnn3C(C)C)cc1OC	-17.4	8929	5.4	-3.6	-1.3	1.4	.
CN(Cc1cccnc1)C(=O)c1ccc2nc(Cc3ccccc3F)oc2c1	-20.7	6581	7.4	3.8	3.0	7.6	-0.4
COc1ccc(N2C(=O)c3ccccc3NC2c2ccccc2O)cc1 (stereo unspecified)	-7.0	4042	-7.0	0.4	-1.8	-11.5	3.9
COc1cc(OC)nc(Oc2ccccc2C(=O)Oc2ccc(F)cc2Cl)n1	-12.7	9337	12.1	3.8	3.4	20.5	-7.8
O=[N+]([O-])c1ccc2c(c1)OCCOCCOCCOCCOCCOCCO2	-4.0	1884	8.2	13.3	0.9	8.6	1.5
O=C(CN1C(=O)C2C3CCC(C3)C2C1=O)Oc1ccc2ccccc2c1 (stereo unspecified)	-8.4	2031	14.2	0.1	2.7	5.7	-8.8
CCCSc1nc2cc(S(=O)(=O)N3CCOCC3)ccc2n1CC	-4.0	5765	11.7	6.8	2.7	6.3	-11.4
Cc1cccc(NC(=O)CCC(=O)Nc2nnc(C3CCCCC3)s2)c1	-15.6	4401	4.7	-7.8	1.5	11.4	1.8
CCOC(=O)c1ccc(N2Cc3ccccc3C2)cc1O	-68.6	8661	4.5	2.7	5.5	-0.2	-5.9
COc1ccc(CNC(=O)CN2CCC(NC(=O)c3ccc(OC)cc3)CC2)cc1	10.2	6735	-13.4	2.1	0.2	-1.6	-3.5
CC(C#N)N1CCN(S(=O)(=O)c2ccc3c(c2)CCC3)CC1 (stereo unspecified)	-18.3	6378	2.5	2.5	7.7	3.3	.
O=C(CN1CCC(n2nnc3cc(F)ccc32)CC1)NCCc1ccccc1	-5.8	2900	.	.	-1.8	-1.8	4.6
O=C(CCCn1c(=S)[nH]c2ccccc2c1=O)N1CCCCC1	-14.9	9098	10.0	6.0	2.9	-9.6	-1.7
O=C(CSc1nc(O)cc(=O)[nH]1)N1c2ccccc2Sc2ccccc21	-16.0	4423	-6.1	-3.9	-0.1	-3.9	-4.6
COc1ccc(OC)c(S(=O)(=O)N2CCCC(C(=O)N3CCCCCC3)C2)c1 (stereo unspecified)	1.5	5913	2.0	-0.1	-0.6	5.1	0.2
